# Compound activity deposited in PubChem by National Center for Advancing Translational Sciences (NCATS).
# SARS PLP yeast – inhibitors of SARS-CoV papain-like protease in yeast | S. cerevisiae expressing SARS-CoV PLpro, growth rescue; control for the full effect not named in the record | Potency, µM (doses to about 32.9 µM), for the others: at the top dose activity, positive = growth rescue | 330,000 tested, 0.19% active; active means well fitted rising curve with a large enough effect; inconclusive means small, poorly fitted or top-dose-only effect; inactive means no such curve, though single readings can be large or run the other way; also: 0% is about no effect; nearly all actives have a fitted effect of over 55% in size; growth read by luminescence after 48 h
# RE007 growth inh – less growth of the S. pombe RE007 Vpr strain; S. pombe RE007 Vpr strain, BacTiter-Glo ATP luminescence, 24 h; control for the full effect not named in the record; Potency, µM (doses to about 92.2 µM), for inactives: at the top dose activity change, negative = less growth; 360,000 tested, 0.21% active; AID 651644; active = well fitted falling curve with a large enough effect; inconclusive = small, poorly fitted or top-dose-only effect; inactive = no such curve, though single readings can be large or run the other way;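 also: % is scaled to controls: 0 for no effect and ±100 for the full control effect; nearly all actives have a fitted effect of over 50% in size; the assay follows cell death caused by Vpr and the record does not say whether a fall means rescue or toxicity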
#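 Fission yeast strain RE007, carrying one chromosomally integrated HIV-1 vpr copy, was seeded at OD 0.01 in PMG+AL medium with 23 nL pinned compound. After 24 h at 30 °C and 99% humidity, viability was read by BacTiter-Glo luminescence.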
# StopGo reporter – FMDV 2A StopGo reporter, luciferase signal | human cells with a luciferase reporter of 2A StopGo recoding; control for the full effect not named in the record | Potency, µM (titrated, usually from 57.9 µM), inactives show top-dose signal change, negative = less light | 410,000 tested, 1.2% active | AID 1159524; active = well fitted falling curve with a large enough effect; inconclusive = small, poorly fitted or top-dose-only effect; inactive = no such curve, though single readings can be large or run the other way; tested in HEK293T cells; also: % is scaled to controls: 0 for no effect and ±100 for the full control effect; nearly all actives have a fitted effect of over 45% in size; luciferase light after 4 h
# * marks the source's active call; other numbers are inactive results; ? = inconclusive; . = no result given; [ ] = another dose, or the depositor's remark. Potency is read from the fitted curve at half-maximal effect. The list is partial; the hit share may differ from the screen's.
# Preview, 3 compounds:
1. O=C1c2ccccc2C(=O)N1CCCCc1cn(C[C@H]2CC[C@@H]([C@@H]3CC[C@H](Cn4cc(CCCCN5C(=O)c6ccccc6C5=O)nn4)O3)O2)nn1
2. COc1ccccc1CNC(=O)c1ccc(Cl)c(S(=O)(=O)N2CCCC2)c1
3. CCC(=O)N(c1nnc(SCC(=O)NN2C(=O)NC3(CCCCC3)C2=O)s1)C1CC1

Screen / compound no. | 1 | 2 | 3
SARS PLP yeast | -6% | -3% | 7%
RE007 growth inh | -16% | -6% | 2%
StopGo reporter | 25µM* | -15% | -16%

# This part in full (from the top)
1. O=C1c2ccccc2C(=O)N1CCCCc1cn(C[C@H]2CC[C@@H]([C@@H]3CC[C@H](Cn4cc(CCCCN5C(=O)c6ccccc6C5=O)nn4)O3)O2)nn1
2. COc1ccccc1CNC(=O)c1ccc(Cl)c(S(=O)(=O)N2CCCC2)c1
3. CCC(=O)N(c1nnc(SCC(=O)NN2C(=O)NC3(CCCCC3)C2=O)s1)C1CC1
4. COc1cccc(OC)c1OCC(=O)Nc1ccc(S(=O)(=O)N2CCCC2)cc1
5. COC(=O)C1=C(c2ccc(F)cc2OCc2ccccc2)C[C@@H]2CC[C@H]1N2C(=O)NCCOc1ccccc1

Screen / compound no. | 1 | 2 | 3 | 4 | 5
SARS PLP yeast | -6% | -3% | 7% | -1% | 0%
RE007 growth inh | -16% | -6% | 2% | -14% | -6%
StopGo reporter | 25µM* | -15% | -16% | 25µM* | ?

# Molecules listed so far that contain an aryl methoxy group:
2. COc1ccccc1CNC(=O)c1ccc(Cl)c(S(=O)(=O)N2CCCC2)c1
4. COc1cccc(OC)c1OCC(=O)Nc1ccc(S(=O)(=O)N2CCCC2)cc1

Screen / compound no. | 2 | 4
SARS PLP yeast | -3% | -1%
RE007 growth inh | -6% | -14%
StopGo reporter | -15% | 25µM*

# (list continues)
6. CC1CCCCC1NC(=O)Cn1cnc2c1c(=O)n(C)c(=O)n2C (configuration not stated)
7. CC[C@@]1(C(=O)OC)N[C@H](CN(C)S(=O)(=O)c2ccc(F)cc2)[C@@H]2C(=O)N(C)C(=O)[C@@H]21
8. Cc1ccc(CN2C(=O)CCC2C(=O)NCc2ccccc2Cl)cc1 (configuration not stated)
9. O=C(OCC(=O)N1CCc2ccccc21)c1ccc(Br)o1
10. Cc1c(C(=O)NCc2ccccc2CN2CCCC2)oc2ccc(F)cc12

Screen / compound no. | 6 | 7 | 8 | 9 | 10
SARS PLP yeast | 0% | 2% | -3% | -6% | -3%
RE007 growth inh | 0% | 9% | -5% | ? | 2%
StopGo reporter | -12% | -17% | -8% | 13% | -26%

11. COc1ccc([C@H]2CC(=O)C=C(c3ccc4c(c3)sc3ccccc34)C2)cc1
12. CC(C)=CCOc1c2ccoc2c(OCC=C(C)C)c2oc(=O)ccc12
13. COc1ccc(C(=O)NCC2CCCCC2)cc1S(=O)(=O)N1CCCC1
14. Cc1cccc(C)c1NC(=O)CN1CCN(CC(=O)NCC2(N3CCCCC3)CCCCC2)CC1
15. COc1ccc(OC)c(NC(=O)C(C)SCc2nc3sc(C)c(C)c3c(=O)[nH]2)c1 (configuration not stated)

Screen / compound no. | 11 | 12 | 13 | 14 | 15
SARS PLP yeast | -5% | -4% | 9% | 0% | 0%
RE007 growth inh | -13% | -8% | 5% | 5% | 10%
StopGo reporter | 2% | -24% | 2% | -10% | -20%

# Overlap with the part before: four compounds; new compounds follow.
12. CC(C)=CCOc1c2ccoc2c(OCC=C(C)C)c2oc(=O)ccc12
13. COc1ccc(C(=O)NCC2CCCCC2)cc1S(=O)(=O)N1CCCC1
14. Cc1cccc(C)c1NC(=O)CN1CCN(CC(=O)NCC2(N3CCCCC3)CCCCC2)CC1
15. COc1ccc(OC)c(NC(=O)C(C)SCc2nc3sc(C)c(C)c3c(=O)[nH]2)c1 (configuration not stated)
16. CCCn1nc(C(=O)NC2CC2)c2ccccc2c1=O
17. COc1ccc2[nH]c3c(c2c1)CCN1C(=O)C(CC(=O)NCCN2CCOCC2)C[C@H](C(=O)N(C(C)C)C(C)C)[C@@]31C (some centres not stated)
18. O=C(Nc1ccccc1N1CCOCC1)C1=NN(c2c(F)c(F)cc(F)c2F)C(=O)CC1
19. CC(C)(C)N(Cc1ccccc1)C(=O)COC(=O)c1ccc([N+](=O)[O-])o1
20. Cc1ccc(CSc2nnc3ccc(-c4ccncc4)nn23)cc1

Screen / compound no. | 12 | 13 | 14 | 15 | 16 | 17 | 18 | 19 | 20
SARS PLP yeast | -4% | 9% | 0% | 0% | -12% | 0% | -7% | -12% | -7%
RE007 growth inh | -8% | 5% | 5% | 10% | -5% | -13% | -3% | -5% | 5%
StopGo reporter | -24% | 2% | -10% | -20% | -12% | -11% | ? | -6% | 1%

21. COc1ccc(-c2cn(Cc3ccc(C(=O)NCc4ccc(C)cc4)cc3)c(C(C)N)n2)cc1 (configuration not stated)
22. O=C(NCc1ccco1)/C(=C\c1cccs1)NC(=O)c1ccccc1
23. CCN(C[C@H]1N[C@@](Cc2ccccc2)(C(=O)OC)[C@H]2C(=O)N(C)C(=O)[C@@H]12)C(=O)Nc1ccc(Cl)cc1
24. O=C(COc1ccccc1Cl)NNC(=O)c1ccc2c(=O)n3c(nc2c1)CCC3
25. Cc1ncc(C[n+]2ccc(C)c(C)c2)c(N)n1

Screen / compound no. | 21 | 22 | 23 | 24 | 25
SARS PLP yeast | 0% | 4% | ? | -5% | -1%
RE007 growth inh | 4% | -7% | -5% | 1% | .
StopGo reporter | 13% | 9% | 0% | -22% | -9%

26. COc1cc(C2c3cc4c(cc3CC3COC(=O)C32)OCO4)cc(OC)c1OC (configuration not stated)
27. Cc1ccccc1OCC(=O)Nc1nnc(C2CC2)s1
28. CC(OC(=O)c1cccnc1Cl)C(=O)NCc1ccccc1 (configuration not stated)
29. CSc1nsc2nc(=O)c(/C=C3\C=Nc4ccccc43)c(N)n12
30. CCOC(=O)C1CC2CC(C1)CN(C(=O)C1CCCCC1)C2 (configuration not stated)

Screen / compound no. | 26 | 27 | 28 | 29 | 30
SARS PLP yeast | 5% | 0% | 8% | -9% | 1%
RE007 growth inh | 5% | -5% | -18% | -6% | 8%
StopGo reporter | -14% | 11% | -16% | 14% | -10%

31. CN(C)CCOc1ccc(-c2c(-c3ccccc3)sc3ccccc23)cc1
32. COC(=O)C1SCC2C(=O)N(Cc3ccc(Cl)c(Cl)c3)CC(=O)N21 (configuration not stated)
33. COc1ccc(NC(=O)NS(=O)(=O)c2ccc(C)cc2)cc1OC
34. Cc1cc(OCC(=O)OCC(=O)N2CCc3ccccc32)ccc1Cl
35. CCN1CCN(C(=O)c2ccc(S(=O)(=O)Nc3ccccc3)cc2)CC1

Screen / compound no. | 31 | 32 | 33 | 34 | 35
SARS PLP yeast | 3% | 4% | -3% | -5% | 1%
RE007 growth inh | ? | -4% | -11% | -10% | -7%
StopGo reporter | ? | -13% | -16% | 9% | -5%

36. O=C(COc1ccc2cc(Br)ccc2c1)N1CCOCC1
37. Cc1ccc(N2C(=O)C3C4C=CC(CNC(=S)N5CCN(c6ccccn6)CC5)(O4)C3C2=O)cc1 (configuration not stated)
38. CCC(=O)Nc1cccc(NC(=S)NC(=O)c2ccccc2C)c1
39. CCOc1ccc(OCCC(=O)OCC(=O)N2CCN(S(=O)(=O)c3ccc(C)cc3)CC2)cc1
40. Cc1cccnc1NC(=S)Nc1ccc(Br)cc1Cl

Screen / compound no. | 36 | 37 | 38 | 39 | 40
SARS PLP yeast | -7% | -22% | 3% | 7% | 0%
RE007 growth inh | 13% | 4µM* | -15% | 7% | -4%
StopGo reporter | 5% | -10% | 16% | ? | 66%[activator]

41. CCc1ccccc1NC(=O)CN1CCN(CC(=O)NCc2ccc(Cl)cc2)CC1
42. CSc1ncccc1C(=O)N1CCN(S(=O)(=O)c2ccc3ccccc3c2)CC1
43. COC(=O)c1c(-c2cc(OC)cc(OC)c2)sc2ccc(OC)cc12
44. COc1ccc(-c2nnn(CC(=O)Nc3ccc4c(c3)OCCO4)n2)cc1OC
45. COc1cccc(NC(=O)N2CCCC2C(=O)Nc2ccc3c(c2)OCCO3)c1 (configuration not stated)

Screen / compound no. | 41 | 42 | 43 | 44 | 45
SARS PLP yeast | 5% | -2% | -14% | -4% | -3%
RE007 growth inh | ? | -7% | 4% | 12% | 0%
StopGo reporter | -26% | 0% | 14% | -22% | -5%

46. COCCn1c(SCC(=O)Nc2c(C)n(C)n(-c3ccccc3)c2=O)nnc1-c1ccncc1
47. O=C(NCCCN1CCCC1=O)c1cccc(S(=O)(=O)N2CCCCC2)c1
48. COc1cc(OC)cc(C(=O)NCC(=O)OCc2ccc(Cl)c(Cl)c2)c1
49. CCOc1ccc(NC(=O)CSc2nnnn2C2CC2)cc1S(=O)(=O)N1CCCC1
50. CCOC(=O)C1=C(CC)Nc2ccccc2N/C1=N\S(=O)(=O)c1cccc(C(C)=O)c1

Screen / compound no. | 46 | 47 | 48 | 49 | 50
SARS PLP yeast | 0% | 2% | -7% | -7% | -5%
RE007 growth inh | 1% | 3% | -10% | -6% | 6%
StopGo reporter | 0% | 4% | 6% | -14% | 23%

51. O=C(NCC(c1ccco1)N1CCCC1)c1ccc(S(=O)(=O)Nc2ccc(F)cc2)cc1 (configuration not stated)
52. O=S(=O)(c1ccccc1Br)N(CC(O)COCc1ccccc1)C1CC1 (configuration not stated)
53. Cc1cc(OCC(=O)Nc2nnc(C3CC3)s2)ccc1C(C)C
54. Cc1ccc(S(=O)(=O)N2[C@@H](c3cccc(Cl)c3)C(C(=O)O)=CC[C@H]2c2ccc(C(C)C)cc2)cc1
55. O=C(CCNS(=O)(=O)c1ccc2nsnc2c1)N1CCN(c2ccncc2)CC1

Screen / compound no. | 51 | 52 | 53 | 54 | 55
SARS PLP yeast | 2% | 3% | 0% | 1% | -6%
RE007 growth inh | -5% | 5% | 4% | 16% | -15%
StopGo reporter | -15% | -6% | -20% | -14% | -17%

56. CCCCN1C(=O)C(=O)N(CC(=O)c2ccc3c(c2)CCCC3)C1=O
57. COC(=O)c1ccccc1S(=O)(=O)N1CCC(C(=O)NC2=NCCS2)CC1
58. COc1cccc(/C=N/NC(=O)c2ccc(N(C)S(=O)(=O)c3ccccc3)cc2)c1OC
59. O=C(O)c1ccc(N=N/C(=N\Nc2ccc(C(=O)O)cc2)c2ccccc2)cc1
60. C=CCSc1nnc(NC(=O)CCN2C(=O)C3CC=CCC3C2=O)s1 (configuration not stated)

Screen / compound no. | 56 | 57 | 58 | 59 | 60
SARS PLP yeast | 8% | -14% | 1% | -1% | 1%
RE007 growth inh | 0% | 3% | 2% | -24% | 3%
StopGo reporter | -14% | -10% | -27% | 24% | 29%

61. c1ccc(CSc2nnc3ccc(-c4ccncc4)nn23)nc1
62. C/C(=N\N(Cc1ccccc1)c1ccccc1)c1cccnc1
63. CCN(CC(=O)Nc1ccc(NC(C)=O)cc1)C(=O)CCCc1nc2ccccc2s1
64. NS(=O)(=O)c1ccc(NC(=O)COC(=O)CC2Sc3ccccc3NC2=O)cc1 (configuration not stated)
65. CN(C(=O)COc1ncnc2sccc12)C1CCCCC1

Screen / compound no. | 61 | 62 | 63 | 64 | 65
SARS PLP yeast | 1% | -2% | -5% | -8% | 6%
RE007 growth inh | -2% | 2% | -8% | 4% | -6%
StopGo reporter | 7% | -27% | -11% | 36%[activator] | -15%

66. O=C(NNC(=O)C1CCC1)c1ccccc1
67. CC(Oc1ccccc1)C(=O)N=Nc1c(O)[nH]c2ccc(Br)cc12 (configuration not stated)
68. CC1=NN(C(=O)CCc2ccccc2)C(O)(c2ccncc2)C1 (configuration not stated)
69. O=C(COC(=O)c1ccc([N+](=O)[O-])o1)Nc1ccc(N2CCOCC2)cc1
70. COc1ccc(C(C)(C)C)cc1NC(=O)CCN1C(=O)NC(C)(C)C1=O

Screen / compound no. | 66 | 67 | 68 | 69 | 70
SARS PLP yeast | -3% | 2% | 2% | -13% | -2%
RE007 growth inh | -11% | 0% | 0% | 6% | -17%
StopGo reporter | -8% | -10% | -10% | 0% | -13%

# Some of the entries so far, as labelled records:
68: CC1=NN(C(=O)CCc2ccccc2)C(O)(c2ccncc2)C1 (configuration not stated)
  SARS PLP yeast: 2%
  RE007 growth inh: 0%
  StopGo reporter: -10%
69: O=C(COC(=O)c1ccc([N+](=O)[O-])o1)Nc1ccc(N2CCOCC2)cc1
  SARS PLP yeast: -13%
  RE007 growth inh: 6%
  StopGo reporter: 0%

# Remaining list, next part.
71. O=C(CN1CCN(S(=O)(=O)c2ccc(Cl)s2)CC1)N1CCCCC1
72. C[C@H](CO)N1C[C@H](C)[C@@H](CN(C)Cc2ccc(C(=O)O)cc2)Oc2ccc(NS(C)(=O)=O)cc2C1=O
73. CN(CC(=O)Nc1ccc(F)cc1)C(=O)CSc1ccc2c(c1)OCCO2
74. O=[N+]([O-])CC1(n2nc3ccccc3n2)CCCCC1

Screen / compound no. | 71 | 72 | 73 | 74
SARS PLP yeast | 0% | 4% | -1% | 2%
RE007 growth inh | 14% | 10% | 8% | 5%
StopGo reporter | ? | 0% | 3% | 12%
